Compound activity from PubChem.
miR-21 FLuc = qHTS Assay for Modulators of miRNAs and/orActivators of miR-21; HeLa miR-21 FLuc reporter, luciferase, 48 h; Potency, µM (series often up to 38.3 µM), without a hit: top-dose reporter change, positive = more light; 340,000 tested, under 10 active; active = well fitted rising curve with a large enough effect; inconclusive = small, poorly fitted or top-dose-only effect; inactive = no such curve, though single readings can be large or run the other way;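 also: % of control where 0% means no effect; miR-21 action dims this reporter so a rising signal means less miR-21 action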
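HeLa cells endogenously expressing miR-21, stably carrying CMV-driven firefly luciferase with a downstream miR-21 binding site, 2000 cells/well. Titrations up to approximately 40 uM, 48 hours; luciferase luminescence read.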
Rango dissoc inh = qHTS Assay for Inhibitors of RanGTP induced Rango (Ran-regulated importin-beta cargo) - Importin beta complex dissociation; Biochemical FRET Rango-importin beta, RanGTP-induced dissociation; Potency, µM (top dose mostly 46.1 µM), inactives show at the top dose activity change, negative = inhibition; actives 0.071% (n = 340,000); active means falling FRET ratio curve, often poorly fitted, with flat reads before Ran was added; inconclusive means other falling curves, or compound fluorescence or quenching; inactive means flat or rising ratio curve;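 also: potency is read from the fitted curve at half-maximal effect; % of control where 0% means no effect; nearly all actives have a fitted effect of over 45% in size; -100% = wells without RanGTP and RCC1; the record marks most hits as doubtful in a second field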
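Compounds sat 5 min at room temperature with 0.1 uM Rango biosensor plus 0.25 uM importin beta, then FRET pre-read. RanGTP-RCC1 (0.6 uM Ran, 2mM GTP, 0.2 uM RCC1) added for 45 min, and the CFP/YFP post-read measured blocked complex dissociation.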
Rango complex inh = qHTS Assay for Inhibitors of Rango (Ran-regulated importin-beta cargo) - Importin beta complex formation. Rango CFP/YFP FRET sensor + importin beta, 45 min. Potency, µM (doses to about 92.2 µM), for inactives: at the highest dose inhibition of complex formation. actives 0.031% (n = 340,000); active = rising FRET ratio curve, often small or poorly fitted; inconclusive = mostly compound fluorescence or quenching in the first reads; inactive = flat curves in all reads;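 also: potency is read from the fitted curve at half-maximal effect; 0% = DMSO wells and 100% = buffer wells lacking importin beta; nearly all actives have a fitted effect of over 15% in size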
Target sequence (Q14974 whole entry, looked up): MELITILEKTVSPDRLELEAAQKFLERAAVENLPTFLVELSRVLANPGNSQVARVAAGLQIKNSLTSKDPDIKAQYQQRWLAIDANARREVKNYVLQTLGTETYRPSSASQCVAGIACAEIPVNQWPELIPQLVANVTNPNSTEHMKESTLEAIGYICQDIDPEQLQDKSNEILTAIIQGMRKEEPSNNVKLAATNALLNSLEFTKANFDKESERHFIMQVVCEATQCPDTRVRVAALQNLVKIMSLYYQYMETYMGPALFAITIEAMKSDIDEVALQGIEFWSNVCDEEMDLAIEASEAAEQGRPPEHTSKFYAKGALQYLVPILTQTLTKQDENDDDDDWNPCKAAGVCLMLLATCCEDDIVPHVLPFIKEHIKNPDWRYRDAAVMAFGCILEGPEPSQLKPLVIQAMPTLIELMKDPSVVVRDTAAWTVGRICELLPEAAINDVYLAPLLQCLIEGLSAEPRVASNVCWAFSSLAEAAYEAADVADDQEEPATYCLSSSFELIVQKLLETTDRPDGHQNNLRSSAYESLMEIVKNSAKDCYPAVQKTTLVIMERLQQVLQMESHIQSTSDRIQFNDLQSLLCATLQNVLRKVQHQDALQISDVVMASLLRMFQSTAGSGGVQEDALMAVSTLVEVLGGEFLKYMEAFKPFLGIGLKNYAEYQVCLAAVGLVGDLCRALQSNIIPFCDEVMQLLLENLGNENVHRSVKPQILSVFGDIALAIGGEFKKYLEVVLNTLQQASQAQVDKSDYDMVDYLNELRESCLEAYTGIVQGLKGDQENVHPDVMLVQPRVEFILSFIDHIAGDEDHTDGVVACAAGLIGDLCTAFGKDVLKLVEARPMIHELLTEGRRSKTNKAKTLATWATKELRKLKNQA
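FRET biosensor Rango (snurportin 1 IBB between N-terminal EYFP and C-terminal Cerulean), 50 nM in PBS/1 mM DTT/0.02% Tween-20/0.1% BSA, preincubated 5 min RT with compound; 0.125 microM importin beta added, 45 min RT, CFP/YFP FRET ratio read.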
GLA inh pH 4.5 = qHTS Assay for Inhibitors of Human alpha-Galactosidase at pH 4.5; purified enzyme, 4-MU-alpha-Gal fluorescence, pH 4.5; 230,000 tested, under 10 active; activity change, negative = inhibition, % at 105 µM; Alpha-galactosidase A (Homo sapiens), P06280; inconclusive = small, poorly fitted or top-dose-only inhibition, or a rising curve; inactive = flat fitted curve, though single readings scatter; no compound was filed as active;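 also: 0% = full activity with enzyme and -100% = basal without enzyme; dose as in the result columns while the protocol names 77 µM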
The depositor's hits bear a star; ? = inconclusive; · = no result given; [ ] = dose if it differs, or a comment. This is a subset; count on the stated rates, not on these rows.

SMILES	miR-21 FLuc	Rango dissoc inh	Rango complex inh	GLA inh pH 4.5
CC(=O)N1c2ccc(S(=O)(=O)N(C)CC(=O)NC3CCCC3)cc2CC1C (stereo not given)	0%	2%	8.2%	·
O=C(O)/C=C/C(=O)NCCc1ccc(Cl)cc1	4%	13%	-3.8%	-2
O=C(NCCc1ccccc1)C(c1cccs1)N(C(=O)c1csnn1)C1CC1 (stereo not given)	-7%	3%	-0.2%	5
COc1ccc(-c2nnn(CC(=O)N(CCCN3CCOCC3)C(C(=O)NC3CCCC3)c3ccc(C)o3)n2)cc1 (stereo not given)	2%	6%	0.7%	3
CCCCC(O)(CCN1CCOCC1)c1ccc(Cl)cc1 (stereo not given)	-1%	-2%	-0.2%	-5
COc1ccccc1C(=O)NNC(=O)c1sccc1-n1cccc1	0%	8%	4.0%	-2
CCC1Oc2ccccc2N(CC(=O)NCCCN2CCCCC2CC)C1=O (stereo not given)	3%	1%	-1.5%	-4
Cn1nnnc1Sc1ncnc2scc(-c3ccc(Cl)cc3)c12	·	-12%	-0.1%	·
Cc1ccccc1-c1nnc(-c2ccccc2)o1	-50%	0%	-0.8%	-9
CC(=O)N(C(C)=O)c1ncc2c([nH]c3ccccc32)c1C#N	21%	15%	-0.5%	-19
CCc1cccc(C)c1NC(=O)CSc1n[nH]c(N)n1	·	8%	-2.6%	·
CCc1ccc(NC(=O)C(=O)N/N=C(\C)CC(=O)Nc2ccc(OC)cc2)cc1	-20%	1%	0.2%	-7
COc1ccc(C2/C(=C(/O)c3ccc(Br)cc3)C(=O)C(=O)N2C)cc1OC (stereo not given)	-4%	11%	-0.5%	·
COc1ccc(CCC(C)NCC2CCCCC2)cc1 (stereo not given)	-5%	1%	4.4%	-15
CC(NC(=O)COc1ccccc1)C(=O)NCc1ccc(S(N)(=O)=O)cc1 (stereo not given)	·	-13%	0.2%	·
CC(=O)c1nn(-c2cccc(C)c2)cc1C(=O)c1cccc(Br)c1	·	-10%	0.5%	·
COc1ccc(/C=C/c2c(-c3cccc(C)c3)oc3ccc(-c4ccc5c(c4)OCO5)cc23)cc1	2%	8%	-0.9%	·
COc1ccc(-n2c(=S)[nH]c3cc(C(=O)NCCCN4CCCC4=O)ccc3c2=O)cc1OC	0%	?	2.3%	-3
CCS(=O)(=O)C1=NSC2=NC(=O)/C(=C\c3cc(C)n(-c4cccc(OC)c4)c3C)C(=N)N21	-2%	-7%	?	-4
CCCC1CCC(=NNC(=O)OC(C)(C)C)CC1 (stereo not given)	-31%	1%	-0.8%	4
O=C(COC(=O)c1cc(S(=O)(=O)N2CCCCC2)ccc1N1CCOCC1)NC1CCCCC1	-12%	-5%	-2.9%	2
CC(=O)c1ccc(OCC(=O)OCc2cc(-c3ccco3)on2)cc1	·	10%	-1.8%	·
O=C1COC(c2ccccc2)=CN1Cc1ccccc1	·	0%	-0.8%	·
CCOC(=O)c1[nH]nc(N)c1NC(=O)c1ccc(Cl)cc1Cl	-16%	-2%	-0.8%	4

Retrieved by structure from above (5):
SMILES	miR-21 FLuc	Rango dissoc inh	Rango complex inh	GLA inh pH 4.5
O=C(NCCc1ccccc1)C(c1cccs1)N(C(=O)c1csnn1)C1CC1 (stereo not given)	-7%	3%	-0.2%	5
O=C(O)/C=C/C(=O)NCCc1ccc(Cl)cc1	4%	13%	-3.8%	-2
O=C(COC(=O)c1cc(S(=O)(=O)N2CCCCC2)ccc1N1CCOCC1)NC1CCCCC1	-12%	-5%	-2.9%	2
COc1ccc(-c2nnn(CC(=O)N(CCCN3CCOCC3)C(C(=O)NC3CCCC3)c3ccc(C)o3)n2)cc1 (stereo not given)	2%	6%	0.7%	3
COc1ccc(-n2c(=S)[nH]c3cc(C(=O)NCCCN4CCCC4=O)ccc3c2=O)cc1OC	0%	?	2.3%	-3

New compounds follow
SMILES	miR-21 FLuc	Rango dissoc inh	Rango complex inh	GLA inh pH 4.5
Cc1[nH]c2ccc(C(=O)NCC(C)(C)N3CCOCC3)cc2c1C	-10%	0%	0.1%	-2
COc1cc2oc(=O)c3c(c2cc1OCC(=O)c1c(C)n(C)c2ccccc12)CCCC3	-3%	-9%	-0.7%	-2
CCOC(=O)Cc1csc(NC(=O)COc2ccc3c(c2)CCC3)n1	-1%	-3%	-3.0%	·
COc1ccc(NC2CCCN(C(=O)CCN3CCCC3=O)C2)cc1 (stereo not given)	-1%	19%	3.1%	·
COc1ccc(CCNC(=O)CN2C(=O)COc3ccc(S(=O)(=O)N4CCOCC4)cc32)c(OC)c1	-2%	10%	2.6%	·
Cn1cccc1/C=C1\CC(C(C)(C)C)C/C(=C\c2cccn2C)C1=O (stereo not given)	-4%	?	?	-2
COc1ccc(-c2nc(SCc3ccccc3)n(C(=O)c3ccco3)n2)cc1	-23%	8%	-2.8%	-6
Cc1csc(CN(C)C(=O)C2CCC(=O)N(Cc3ccc(Cl)cc3)C2)n1 (stereo not given)	-1%	0%	3.4%	·
COCc1ccc(CN2CCC(Oc3ccc(C(=O)NCc4ccccn4)cc3)CC2)o1	-6%	10%	1.3%	·
CC(C)CSc1n[nH]c(N)n1	2%	-15%	0.3%	-1[21.1 µM]
Cc1ccc(S(=O)(=O)N2CCCCC2)cc1NC(=O)CCN1C(=O)C2CC=CCC2C1=O (stereo not given)	·	-7%	-2.0%	·
CCOC(=O)c1c(C)[nH]c(C(=O)OCC(=O)NCc2ccc(C)cc2)c1C	·	1%	-0.1%	·
O=C(CCNS(=O)(=O)c1ccccc1F)N1CCN(S(=O)(=O)c2cccc(F)c2)CC1	·	-1%	1.9%	·
CC(NS(=O)(=O)c1ccc(Cl)c(Cl)c1)C(=O)OCC(=O)Nc1ccc2c(c1)OCO2 (stereo not given)	-2%	-9%	-1.6%	-1
C#CCCOC(=O)Nc1ccccc1	-19%	-21%	2.7%	12
CCOc1cc(N2CCOCC2)c(OCC)cc1NC(=O)CSc1ncccc1C(=O)O	·	-1%	0.4%	·
COc1ccccc1C(=O)N1CCN(Cc2cccnc2)CC1	1%	-15%	9.3%	·
COc1ccc(CN2CCN(Cc3ccccc3F)CC2)c(OC)c1	-7%	-4%	-1.0%	·
O=C(O)CN1C(=O)C2C3CC(C2C1=O)C1C(c2ccc(Cl)cc2)c2sc(=O)[nH]c2SC31 (stereo not given)	2%	?	?	-4
CCn1c(SCC(=O)N/N=C/C=C\c2ccccc2[N+](=O)[O-])nnc1-c1ccccc1	-2%	1%	1.0%	-23
Cc1cc(Br)ccc1OCCCCN1CCCCC1	2%	-2%	-0.2%	1
Cc1nnc(SCC(=O)NC2CC2)n1-c1ccccc1	0%	9%	1.2%	·
CCOC(=O)c1c(-c2ccc(C)cc2)csc1/N=C(\C)C1=C(O)c2ccccc2C1=O	-13%	16%	0.7%	-5
CCOC(=O)c1c(-c2cccs2)csc1NC(=O)CN1CC(C)OC(C)C1 (stereo not given)	0%	14%	0.2%	-13
CC(C)CNC(=O)NC(=O)COc1ccc(C=O)cc1	-9%	-1%	6.8%	-13
COc1ccc(N2CCN(C(=O)c3ccc(CS(=O)Cc4ccc(C)cc4)o3)CC2)cc1 (stereo not given)	11%	0%	-1.7%	·
Nc1ncnc(NCc2ccccc2)c1[N+](=O)[O-]	4%	1%	0.1%	-2
COc1ccc(CNc2ccc(N3CCOCC3)cc2)cc1	-29%	4%	-4.9%	·
C[C@H](CO)N1C[C@H](C)[C@H](CN(C)C(=O)Nc2ccc(F)cc2)Oc2c(NC(=O)c3ccc(-c4nccs4)cc3)cccc2C1=O	·	-4%	-1.8%	·
CC(=O)Nc1ccc(N2CCCC(C)C2)c([N+](=O)[O-])c1 (stereo not given)	-20%	-5%	-2.3%	-4
O=C(CCS(=O)(=O)c1ccccc1)Nc1nncs1	12%	13%	-0.4%	·
O=S(=O)(c1ccc(-c2ccon2)s1)N1CCN(c2ccccn2)CC1	-3%	-4%	-0.7%	0
Clc1cccc(N=C2NN=C(c3ccc4c(c3)OCCO4)CS2)c1	12%	-11%	-4.5%	2
CC(C)(C)OC(=O)C1=C(CO)CS[C@@H]2[C@H](NC(=O)Cc3ccccc3)C(=O)N12	·	7%	?	·
CC(C)C(OC(=O)CCCC(=O)Nc1nccs1)C(=O)NC1CCCCC1 (stereo not given)	0%	-9%	-4.3%	3
COc1cc(OC)cc(-c2nc3nc(C)c(CCC(=O)O)c(C)n3n2)c1	1%	6%	-2.2%	-6
O=C(Nc1ccsc1C(=O)N1CCCCCC1)c1ccccc1	-3%	9%	0.7%	?
C/C(=N\NC(=O)c1nnn(-c2nonc2N)c1-c1cccs1)c1ccc(C)cc1	1%	-4%	5.8%	·
O=C(NC1CC1)c1sc2ccccc2c1Cl	-53%	14%	-1.6%	·
CN1CCN(S(=O)(=O)Cc2ccccc2Cl)CC1	-2%	-16%	0.2%	·
CCOc1ccccc1NC(=O)CCS(=O)(=O)c1ccc(Br)cc1	-3%	0%	-4.0%	·
CC(=O)N1CCN(C(=O)CCC(=O)O)CC1	-2%	-5%	4.2%	6
CCN(c1ccccc1)S(=O)(=O)c1ccc(NN)nc1	·	41%	-1.3%	·
COc1cc(C(=O)Nc2ccc(O)cc2C(=O)O)ccc1OC(C)=O	-2%	22%	6.6%	-1
C=CCNC(=O)c1ccccc1NC(=O)c1ccc(Cl)c(S(=O)(=O)Nc2cccc(C)c2C)c1	-2%	-10%	6.2%	-4
CCCCN(C)CCCNC(=O)CS(=O)Cc1nc(-c2ccc(OC)c(OC)c2)oc1C (stereo not given)	-6%	-20%	?	4
COc1ccccc1NC(=O)Nc1ccc(Cc2ccncc2)cc1	-24%	4%	0.0%	-2
Cc1ccc(C)c(N2CCN(C(=O)CNS(=O)(=O)c3cccs3)CC2)c1	-7%	-9%	-1.9%	-16
O=c1c2ccccc2ncn1Cc1ccc2c(c1)OCO2	-12%	14%	2.5%	·
C=C(C)CNC(=S)Nc1nc2c(cc1C(=O)OCC)CCCC2	-46%	-10%	-1.0%	-6
C/C=C/c1ccc(OCCSc2nc(C)cc(=O)[nH]2)c(OC)c1	-34%	-9%	5.7%	3
Cc1cc(C)nc(SCC(=O)N(C)CC(=O)Nc2ccccc2Br)n1	·	20%	0.4%	·
NC(=O)CSc1cn(CCNC(=O)c2cccs2)c2ccccc12	-15%	-13%	3.6%	-2
COc1ccc(C(=O)Nc2ccncc2)cc1[N+](=O)[O-]	14%	7%	0.8%	·
CCOCCn1c(=O)c2c(nc3n2CCCN3Cc2ccccc2)n(C)c1=O	7%	1%	3.6%	·
C[C@H](CO)N1C[C@H](C)[C@@H](CN(C)S(=O)(=O)c2cn(C)cn2)Oc2ccc(NS(=O)(=O)c3ccccc3)cc2C1=O	·	-15%	0.4%	·
CN(C)c1ccc(CNn2cnnc2SCc2ccc(F)cc2)cc1	2%	15%	-0.4%	3
CC(=O)c1sc(C(=O)O)c(-c2ccco2)c1-c1ccco1	7%	2%	-2.8%	-4
CC(=O)NS(=O)(=O)c1ccc(NC(=O)c2ccc(S(=O)(=O)N3CCCC3)cc2)cc1	·	8%	2.3%	·
C/C(=N\NC(=O)c1cc2c(s1)CCC(C)C2)c1ccc[nH]1 (stereo not given)	·	12%	2.0%	·
The results go on.
SMILES	miR-21 FLuc	Rango dissoc inh	Rango complex inh	GLA inh pH 4.5
CC(C)CCCCCCCCCCCCC(=O)NCC(=O)NC1C(O)C(O)C(Nc2ncnc3nc[nH]c23)OC1C(O)CO (stereo not given)	·	-5%	0.0%	·
CCOC(=O)c1c(C)[nH]c(=S)c(C#N)c1-c1ccccc1	-10%	-6%	1.4%	-3
O=C(CNC(=O)c1ccc2c(c1)OCO2)N/N=C(Br)/C=C/c1ccccc1	15%	-7%	-0.4%	3
Cn1cc(CN2CCN(c3ccccc3)CC2)c2ccccc21	-4%	1%	-0.8%	6
O=C(/C=C/c1cccnc1)c1cccc(O)c1	?	-6%	-1.4%	·
CN(C)/C=N/c1nccc(-c2cccs2)n1	-3%	0%	-1.2%	-7
CN(Cc1nccn1C)C(=O)CC1C(=O)NCCN1Cc1cccc(Oc2ccccc2)c1 (stereo not given)	-2%	-17%	-1.9%	2
